Assay outcomes as filed in PubChem.
Ecoli growth – E. coli growth inhibition; Escherichia coli growth, OD600, 23 h; stronger effect = lower value; OD600 absorbance (concentration not given with the values); 330,000 tested, 0.21% active;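 active = OD600 absorbance below the run mean of sample wells minus 3.6 SD, in any replicate, cut at about 0.56 in these data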;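 note: stock transfer was 300 nL into about 60 µL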
HNF4A DNA FP – change in binding of human HNF4 alpha to DNA; HNF4a-FITC DNA binding, fluorescence polarization, 1 h; activity change, % at 10 µM; P41235; 360,000 tested, 0.3% active; in the data active = activity change above about 30%, passing the limit was not always enough;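 note: controls were the assay level and a saturating level of protein; the project sought stronger binding though the title names inhibitors; some compounds called inactive have numbers as strong as hits; positive values seem to mean higher polarization but the record does not say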
UCH37 inh – inhibitors of human deubiquitinating enzyme UCH37; purified proteasome/UCH37, Ub-AMC cleavage fluorescence; inhibition, % (concentration not given with the values); 330,000 tested, 0.33% active; AID 588478;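 active = mean of two replicates above 20%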;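 note: 0% = compound-free wells with enzyme and 100% = wells lacking proteasome; stock transfer was 100 nL into about 20 µL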
Target sequence (Q9Y5K5 whole entry, looked up): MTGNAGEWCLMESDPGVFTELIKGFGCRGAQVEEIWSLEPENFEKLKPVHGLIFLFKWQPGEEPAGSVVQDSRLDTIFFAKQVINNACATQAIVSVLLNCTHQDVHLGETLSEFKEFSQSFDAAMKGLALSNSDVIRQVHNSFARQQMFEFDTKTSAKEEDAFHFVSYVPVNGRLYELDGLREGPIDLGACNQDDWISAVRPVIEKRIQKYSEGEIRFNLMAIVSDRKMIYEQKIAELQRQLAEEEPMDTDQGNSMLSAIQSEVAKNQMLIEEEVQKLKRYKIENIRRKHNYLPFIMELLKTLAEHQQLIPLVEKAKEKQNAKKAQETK
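Material: Human UCH37 enzyme supplied as purified proteasome complex | Schedule: 30 min preincubation with enzyme, 25 min cleavage at room temperature | Detection: AMC fluorescence 355/460 nm | Measure: % inhibition of Ub-AMC cleavage fluorescence | Controls: Wells without proteasome as full block, compound-free enzyme plus substrate as uninhibited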
ALR inh – inhibitors of human sulfhydryl oxidase ALR. P55789. purified ALR, DTT oxidation, H2O2 HRP-luminol luminescence. inhibition, % (concentration not given with the values). 290,000 tested, 3.8% active. AID 485317;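 active = mean and each replicate at 75% or more; inconclusive = only one of the two met; inactive = neither met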;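 note: stock transfer was 7.5 nL into about 7.5 µL; 0% = neutral wells and 100% = wells with inactivated enzyme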
Target sequence (P55789 whole entry, looked up): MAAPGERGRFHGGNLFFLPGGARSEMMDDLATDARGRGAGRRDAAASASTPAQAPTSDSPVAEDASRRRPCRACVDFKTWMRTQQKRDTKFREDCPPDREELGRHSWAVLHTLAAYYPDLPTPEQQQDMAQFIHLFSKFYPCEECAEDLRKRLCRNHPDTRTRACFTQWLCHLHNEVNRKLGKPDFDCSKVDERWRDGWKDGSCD
Ecoli rRNA inh – inhibits bacterial ribosomal RNA function over humanized ribosomes | E. coli WT GFP vs humanized-ribosome RFP mutants, fluorescence, 24 h; stronger effect = lower value; DMSO median 0, no signal -100 | GFP signal change (wild-type ribosome), % (no concentration beside the values) | 350,000 tested, 1.6% active | AID 720706;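 active = significant combined selectivity score with lowered wild-type GFP, culture density cut under 30%, mutant RFP and density less affected; inactive = any of these conditions unmet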; note: one replicate is shown; some compounds called inactive have numbers as strong as hits
FGF22 binding – shifts melting point of recombinant human FGF22; Q9HCT0; recombinant FGF22 thermal shift, SYPRO orange fluorescence; percent of sucrose octasulfate shift, DMSO zero; calls only at 9.99 µM; 340,000 tested, 1.5% active;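 active = melting point raised past a set limit in the mean and every replicate; inconclusive = no clear call; three in four hits are not shown here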
Target sequence (Q9HCT0 whole entry, looked up): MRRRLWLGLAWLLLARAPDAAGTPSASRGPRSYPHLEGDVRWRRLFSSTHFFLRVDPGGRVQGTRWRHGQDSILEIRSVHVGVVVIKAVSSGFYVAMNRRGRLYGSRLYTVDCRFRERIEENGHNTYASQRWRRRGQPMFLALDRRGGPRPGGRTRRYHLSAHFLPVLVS
Beta2AR agonist – human beta-2 adrenergic receptor agonism by FAP; P07550; Am2.2-beta2AR cells, FAP receptor internalization, flow cytometry; reference of the scale not given here; response, % (test concentration not listed); 340,000 tested, 0.43% active;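 active = response above a set limit, near 3 SD of response in nonfluorescent compounds, cut at about 42% in these data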;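 note: stock transfer was 100 nL into about 11 µL; a reference agonist was the positive control; negative values mostly stem from fluorescent compounds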
Ecoli rRNA inh OD600 – also measured in Ecoli rRNA inh; calls as there; OD600 change, %; measured here: OD600 growth;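 optical density of the mix in the first replicate; 0 = DMSO median and -100 = no signal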
Ecoli rRNA inh RFP – recorded beside Ecoli rRNA inh, whose call it bears; RFP signal change, %; measured here: RFP humanized mutant strains;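 first replicate; 0 = DMSO median and -100 = no signal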
Numbers without * were called inactive; i = inactive; ? = inconclusive; / = no result given; & = joins results of further samples. Not all compounds are listed; count on the stated rates, not on these rows.

Compound,Ecoli growth,HNF4A DNA FP,UCH37 inh,ALR inh,Ecoli rRNA inh,Ecoli rRNA inh OD600,Ecoli rRNA inh RFP,FGF22 binding,Beta2AR agonist
COc1ccc(/C(N)=N/OC(=O)c2cccs2)cc1,0.68,5.4,7.7,59,8,20,-2.3,i,3
CN1CCN(c2ccccc2NC(=O)c2ccc([N+](=O)[O-])cc2Cl)CC1,0.71,-0.5,3.4,-12,14,3,2.6,i,3
CC1Cc2ccccc2N1C(=O)CCN1C(=O)C2C3C=CC(C3)C2C1=O (stereo not drawn),0.72,3.1,4.6,-8,/,/,/,/,-22
O=P(O)(O)c1ccccc1OCc1ccccc1,0.78,1.6,2.1,/,/,/,/,/,-1
CN(Cc1ccco1)C(=O)C1CCN(c2nnc(-n3cccc3)s2)CC1,0.68,1.3,-0.6,-5,-7,-2,2.3,i,1
COc1ccccc1OCC(O)CN1CCN(CC(=O)Nc2c(C)cccc2C)CC1 (stereo not drawn),0.7&0.68,-1.6&1.4,0.2&3.5,-1&-5,4,5,-0.4,i,2&2
CCCCN1C(=O)C(C(=O)OCC)CC2=C1CCCC2=O (stereo not drawn),/,-0.8,/,/,4,10,-2.6,i,6
Cc1ccc(SCCC(=O)OCC(=O)Nc2ccc(S(N)(=O)=O)cc2)cc1,0.7,-4.8,1.0,-6,2,2,0.8,i,-10
CC(Nc1nc(N2CCOCC2)nc2ccccc12)c1ccccc1 (stereo not drawn),0.71,0.0,-146,3,1,-30,-7.9,i,9
O=C(O)C/C(=C\c1cccc(NC(=O)c2ccccc2Cl)c1)c1nc2ccccc2s1,0.72,3.6,-4.0,2,-35*,-17*,4.4*,i,9
Cc1ccc(CNC(=O)COC(=O)COc2ccc(C#N)cc2)cc1,0.63,3.4,0.2,-1,-3,-7,-1.3,i,1
Cc1cc(C)c2c(=O)n(-c3ccccc3)[nH]c2n1,0.66,-5.1,3.7,99*,/,/,/,/,-4
CC(=O)N1CCN(S(=O)(=O)c2cccc(C(=O)NC3CCC(C)CC3)c2)CC1 (stereo not drawn),0.66,-1.5,1.7,/,12,7,-1.2,i,-2
O=C(c1ccc(Cl)cc1)c1c[nH]cc1-c1ccccc1,0.76,3.3,1.0,/,/,/,/,/,-1
COc1ccc(CCN(C(=O)c2snc(C(N)=O)c2N)C(C)C(=O)NC2CCCCC2)cc1OC (stereo not drawn),0.71,-1.5,-0.9,0,3,-1,-0.3,i,-7
COc1cc(-c2cnc3c(NC=O)cc(-c4cccc(C(=O)NCCN(C)C)c4)cn23)cc(OC)c1OC,/,0.4,/,/,13,12,-1.4,i,/
CCOc1ccc(N(CC(=O)NCCSCc2ccco2)S(=O)(=O)c2ccc(C)cc2)cc1,0.7,-1.2,2.3,-24,4,8,-1.4,i,-5
CC1CN(S(=O)(=O)c2cccc(C(=O)Nc3ccccc3N3CCOCC3)c2)CC(C)O1 (stereo not drawn),0.68,-5.2,1.2,/,-4,-2,0.1,i,-20
C/C(CC(=O)Nc1ccc([N+](=O)[O-])cc1)=N/NC(=O)C1CC12CCC2 (stereo not drawn),/,0.7,/,18,-10,9,-0.4,/,2
O=C(COc1ccc(/C=N/NC(=O)c2ccccc2)cc1)Nc1ccc([N+](=O)[O-])cc1,/,-2.8,/,-5,/,/,/,/,-1

Laid out differently: entries from further up.
mol: O=C(O)C/C(=C\c1cccc(NC(=O)c2ccccc2Cl)c1)c1nc2ccccc2s1
  Ecoli growth: 0.72	HNF4A DNA FP: 3.6	UCH37 inh: -4.0	ALR inh: 2	Ecoli rRNA inh: -35*	Ecoli rRNA inh OD600: -17*	Ecoli rRNA inh RFP: 4.4*	FGF22 binding: i	Beta2AR agonist: 9

mol: Cc1ccc(CNC(=O)COC(=O)COc2ccc(C#N)cc2)cc1
  Ecoli growth: 0.63	HNF4A DNA FP: 3.4	UCH37 inh: 0.2	ALR inh: -1	Ecoli rRNA inh: -3	Ecoli rRNA inh OD600: -7	Ecoli rRNA inh RFP: -1.3	FGF22 binding: i	Beta2AR agonist: 1

mol: Cc1cc(C)c2c(=O)n(-c3ccccc3)[nH]c2n1
  Ecoli growth: 0.66	HNF4A DNA FP: -5.1	UCH37 inh: 3.7	ALR inh: 99*	Ecoli rRNA inh: /	Ecoli rRNA inh OD600: /	Ecoli rRNA inh RFP: /	FGF22 binding: /	Beta2AR agonist: -4

mol: CC(=O)N1CCN(S(=O)(=O)c2cccc(C(=O)NC3CCC(C)CC3)c2)CC1 (stereo not drawn)
  Ecoli growth: 0.66	HNF4A DNA FP: -1.5	UCH37 inh: 1.7	ALR inh: /	Ecoli rRNA inh: 12	Ecoli rRNA inh OD600: 7	Ecoli rRNA inh RFP: -1.2	FGF22 binding: i	Beta2AR agonist: -2

Continuation.
Values run as follows: Ecoli growth | HNF4A DNA FP | UCH37 inh | ALR inh | Ecoli rRNA inh | Ecoli rRNA inh OD600 | Ecoli rRNA inh RFP | FGF22 binding | Beta2AR agonist
> O=C(COC(=O)c1ncc(Cl)c(Cl)c1Cl)Nc1ccccc1OC(F)F
→ 0.73 | 5.6 | 3.3 | 0 | -6 | -5 | 3.6 | i | -6
> O=C(Nc1ccccc1N1CCOCC1)c1ccc(Br)o1
→ 0.71 | -3.1 | -0.3 | 8 | 0 | -6 | -2.0 | / | 3
> COc1cc(C(=O)NCCc2cc3c(OC)ccc(OC)c3[nH]c2=O)cc(OC)c1OC
→ 0.71 | 1.0 | -2.1 | -4 | -1 | 5 | -1.9 | i | -6
> Cc1ccc(S(=O)(=O)NCCC(=O)NCC(c2ccco2)N2CCCCC2)cc1C (stereo not drawn)
→ 0.61 | 3.1 | -3.9 | 2 | 4 | 9 | 8.0 | i | -2
> FC(F)(F)c1cccc(N2CCN(C(=S)NC3CCCCC3)CC2)c1
→ 0.69 | -1.1 | 2.3 | 2 | / | / | / | / | -7
> NS(=O)(=O)c1ccc(CCNC(=O)c2ccc[nH]c2=S)cc1
→ 0.71 | -1.2 | 6.0 | / | 10 | 17 | 5.5 | i | -7
> COc1ccc(-c2cc(=O)oc(-c3cccc(C)c3)n2)cc1
→ 0.71 | -1.3 | 1.7 | -10 | 5 | 11 | -0.7 | i | -5
> Cc1onc(-c2ccccc2Cl)c1C(=O)N1CCC(C)CC1
→ 0.68 | -0.2 | 3.9 | / | -2 | 3 | -1.6 | i | 0
> Cc1cc(N2C(=O)C(O)=C(C(=O)c3cccs3)C2c2cccc(O)c2)no1 (stereo not drawn)
→ 0.7 | -0.9 | 4.8 | -1 | / | / | / | / | 5
> OC(CN1CCOCC1)Cn1c2ccccc2c2ccccc21 (stereo not drawn)
→ 0.66 | -1.5 | 4.6 | -13 | 2 | -7 | -0.8 | i | 16
> COc1ccc(C)cc1NC(=O)Cc1csc(NC(=O)Nc2ccccc2OC)n1
→ / | 0.6 | / | / | -1 | 0 | 0.1 | i | /
> O=C(O)CCSc1nc2ccccc2n1Cc1ccccc1
→ 0.67 | 4.6 | 5.6 | -5 | -22 | -23 | -4.0 | i | -3
> COc1ccc(Nc2cc(C(=O)N3CCc4ccccc4C3)c3ccccc3n2)c(OC)c1
→ 0.72 | -2.7 | -4.5 | -6 | -8 | -9 | -1.9 | i | 12
> CCOc1ccc(-c2cc(N3C(=O)Nc4ccccc4N3O)on2)cc1
→ 0.7 | -5.2 | 2.5 | 20 | / | / | / | / | 0
> C/C(=N\Nc1nc(-c2ccccc2)cs1)c1cccs1
→ / | 1.8 | / | 21 | / | / | / | / | 0
> COCCNC(=O)COC(=O)C1=Cc2ccccc2OC1
→ 0.65 | -2.3 | -25 | -7 | 17 | 13 | 2.6 | i | -5
> CCOC(=O)N1CCN(C(=O)CN(C2CCCCC2)S(=O)(=O)c2c(C)cc(C)cc2C)CC1
→ 0.7 | 0.0 | 0.4 | -1 | / | / | / | / | 1
> Cc1cc(NC(=O)CSc2nnc(CNc3ccc(F)cc3)n2C2CCCCC2)no1
→ 0.75 | -2.2 | 1.9 | / | / | / | / | / | -9
> COc1cc(C(=O)c2ccc3c(c2)OCO3)cc(OC)c1OC
→ 0.7 | 1.1 | 2.7 | / | -6 | -11 | 1.5 | i | 1
> Cc1ccc(Cl)cc1NC(=O)CCN1C(=O)C2C3CCC(C3)C2C1=O (stereo not drawn)
→ 0.72 | 2.8 | 0.0 | -4 | 1 | -1 | 2.9 | i | -2
> CCN(C(=O)COC(=O)c1cc(Cl)ccc1OC)c1c(N)n(Cc2ccccc2)c(=O)[nH]c1=O
→ 0.67 | -1.6 | 6.8 | / | 2 | 8 | -1.7 | i | -19
> Cc1cccc(C(=O)N/N=C/c2ccc[nH]2)c1
→ / | 2.2 | / | -5 | / | / | / | i | 15
> O=C(CCc1nc2sc3c(c2c(=O)[nH]1)CCCC3)N1CCN(c2ccccc2)CC1
→ 0.64 | 6.7 | -1.9 | -11 | 2 | 5 | 1.3 | i | -4
> Cc1ccc(C)c(-n2c(Cc3cccs3)n[nH]c2=S)c1
→ 0.67 | 3.4 | 4.1 | 17 | -2 | -12 | -3.0 | i | -2
> Cc1onc(C(=O)Nc2ccccc2C(F)(F)F)c1[N+](=O)[O-]
→ 0.71 | 2.4 | 2.0 | -12 | 13 | 1 | -1.2 | i | -2
> O=C(CNCc1cccs1)Nc1ccc(OC(F)(F)F)cc1
→ 0.66 | 0.1 | 6.3 | -5 | -16 | -17 | -0.3 | i | 6
> COc1ccc2oc(=N)c(C(=O)Nc3ccc(Cl)cc3)cc2c1
→ 0.72 | -1.4 | 3.2 | ? | 6 | 3 | 2.3 | i | 2
> CC(=O)Nc1ccc(NC(=O)c2ccc(-n3c(C)ccc3C)cc2)cc1
→ 0.67 | 1.5 | 0.2 | ? | / | / | / | / | -3
> CN1CCN(c2cnn(-c3ccccc3)c(=O)c2Br)CC1
→ 0.67 | 4.6 | 6.7 | -8 | 13 | 21 | 0.7 | i | 4
> CCC1(O)CC(c2ccccc2)=NN1C(=O)c1ccccc1F (stereo not drawn)
→ 0.68 | 1.4 | 2.5 | -4 | -4 | 11 | -2.2 | i | -5
> COc1ccc(-n2c(CN3CCN(c4ccc(F)cc4)CC3)nc3ccc([N+](=O)[O-])cc3c2=O)c(OC)c1
→ 0.69 | 0.2 | 2.4 | -17 | -1 | 3 | -0.1 | i | -5
> COC(=O)C1CCN(Cc2ccc(OCCCN3CCN(c4ccc([N+](=O)[O-])cc4)CC3)cc2)CC1
→ 0.68 | 1.8 | 7.0 | -1 | -12 | -22 | 2.1 | i | 10
> Cc1ccnc(NC(=O)c2ccc(Cl)c(NC(=O)CCc3ccccc3)c2)c1
→ 0.64 | / | 0.7 | 2 | -15 | -10 | -3.5 | / | /
> CC(=O)C(=Cc1ccc(O)cc1)C(C)=O
→ 0.68 | 2.6 | 3.7 | -3 | 11 | 6 | 5.1 | i | 4
> CC1C(=O)N2CCCc3cc(NC(=O)C(=O)NCCc4c[nH]c5ccccc45)cc1c32 (stereo not drawn)
→ 0.63 | 0.9 | 4.7 | 2 | -5 | -6 | -0.7 | i | 16
> CC(C)(C)C(=O)NC(NC(=S)Nc1ccc(S(N)(=O)=O)cc1)C(Cl)(Cl)Cl (stereo not drawn)
→ 0.7 | -0.1 | -25 | / | / | / | / | / | 6
> Nc1c(Cl)ncnc1N/N=C/c1ccc(O)cc1
→ / | 0.4 | / | 18 | 2 | 4 | -1.2 | i | 8
> O=C(c1cc(-c2ccc(Cl)cc2)n[nH]1)N1CCN(C(=O)c2ccco2)CC1
→ 0.69 | 4.4 | 1.3 | -8 | 11 | 14 | -0.5 | i | -12
> Cc1ccc(C(=O)C2Oc3ccccc3C3CC(c4ccc(C)cc4)=NN23)cc1 (stereo not drawn)
→ 0.71 | -1.9 | 0.6 | -4 | -17* | -9.3* | 7.0* | i | 1
> Cc1ccc(C(=O)Nc2cccc3cccnc23)cc1Br
→ 0.7 | 1.9 | -7.1 | -1 | 32 | 17 | 4.0 | i | 1
